Prx2 Sm inh: blocks S. mansoni peroxiredoxin 2 enzymatic activity | S. mansoni Prx2 activity coupled to TGR/GSH (TGR is thioredoxin glutathione reductase), NADPH fluorescence loss, qHTS; some inactives read as strong as hits | Potency, µM | actives 0.07% (n = 65,000) | AID 448; active means full or partial inhibition curve with a strong effect at the top dose; inconclusive means weaker partial or single-point curve; inactive means no accepted curve; also: series up to 57 µM; many of its hits are not listed in these tables
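Purified S. mansoni TGR and Prx2 in pH 7.4 phosphate buffer with EDTA and Tween-20 were preincubated with compounds for 15 min. Further NADPH/GSH was added, then a 2.5 mM H2O2 aliquot initiated turnover, followed kinetically by NADPH fluorescence.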
Anthrax LT inh: anthrax lethal toxin internalization inhibition | Cells, anthrax lethal toxin internalization, FRET ratio (460/530) | Potency, µM (highest dose often 40 µM), without a hit: top-dose activity change, negative = inhibition, usual class: inhibitors | actives 0.67% (n = 70,000) | AID 912; active = well fitted falling ratio curve with the 530 nm signal flat; inconclusive = other ratio curves, or a change in one channel alone; inactive = flat curves in the ratio and both channels; the % refers to the ratio; also: % is scaled to controls: 0 for no effect and ±100 for the full control effect; nearly all actives have a fitted effect of over 50% in size; tested in ME-180 cells; beta-lactamase reporter
The depositor's hits bear a star; ? = inconclusive; / = no result given; & = joins results of further samples; [ ] = remark or other dose. Potency is read from the fitted curve at half-maximal effect. Not all compounds are listed; the hit share may differ from the screen's.

SMILES	Prx2 Sm inh	Anthrax LT inh
O=C(C1CC1c1ccccc1)N1CCOCC1 (stereo not given)	/	-21%
CCn1c(CCCc2nc3c([nH]2)c(=O)n(C)c(=O)n3C)nc2c1c(=O)n(C)c(=O)n2C	>57	7%[8 µM]
COc1ccccc1CNC(=O)c1ccc(NS(=O)(=O)c2c(C)noc2C)cc1	>57	-2%
COc1cc2[nH]c(=O)n(CCCCCC(=O)NCCCN3CCCC3=O)c(=O)c2cc1OC	>57	-7%
O=C(O)CCCN1CCCCC1	>57	-7%[8 µM]
CCOC(=O)CSc1nc2ccccc2n2cnnc12	>57	4%
CCNc1ncc2nc(C)c(=O)n(Cc3cccc(OC)c3)c2n1	>57	?
CCC(=O)c1ccc(N2CCN(C(=O)Cc3ccccc3)CC2)c(F)c1	>57	-16%
O=S(=O)(c1ccccc1)N1CCC2(CCN(c3ccc(-c4ccccc4)cc3)CC2)CC1	>57	16%
CCN1CCc2nc(N)oc2CC1	>57	-1%
CN(C)c1ccnc(-c2cccc(NS(C)(=O)=O)c2)n1	>57	2%
O=S(=O)(c1cccc(-c2cn3cccnc3n2)c1)N1CCOCC1	>57	6%

Six records drawn at random from those above:
SMILES	Prx2 Sm inh	Anthrax LT inh
O=S(=O)(c1cccc(-c2cn3cccnc3n2)c1)N1CCOCC1	>57	6%
CCn1c(CCCc2nc3c([nH]2)c(=O)n(C)c(=O)n3C)nc2c1c(=O)n(C)c(=O)n2C	>57	7%[8 µM]
O=C(C1CC1c1ccccc1)N1CCOCC1 (stereo not given)	/	-21%
CN(C)c1ccnc(-c2cccc(NS(C)(=O)=O)c2)n1	>57	2%
CCNc1ncc2nc(C)c(=O)n(Cc3cccc(OC)c3)c2n1	>57	?
CCC(=O)c1ccc(N2CCN(C(=O)Cc3ccccc3)CC2)c(F)c1	>57	-16%

(cont.)
SMILES	Prx2 Sm inh	Anthrax LT inh
Cc1cc(C(=O)NCCCN2CCCC2=O)cs1	>57	1%
CCSc1cnc(-c2ccccc2)n1CC	>57	-4%
O=C(Cn1nc(-c2ccc(Cl)cc2)ccc1=O)NCC1CCCO1 (stereo not given)	>57	-16%
Cc1ccc(-n2c(SCC(=O)N3CCCC3)nc3c(c2=O)SCC3)cc1	>57	0%
O=C(Nc1ccc2c(c1)OCO2)C1CCN(Cc2cnn(-c3ccccc3)c2-n2cccc2)CC1	>57	-4%
CCN(Cc1ccccc1)S(=O)(=O)c1ccc(C(=O)Nc2nnc(C3CC3)o2)cc1	>57	-5%
CN1/C(=C\C(=O)COC(=O)CN2C(=O)C3CC=CCC3C2=O)C(C)(C)c2ccccc21 (stereo not given)	>57	-5%
CCc1ccc(NC(=O)CNS(=O)(=O)c2c(C)noc2C)cc1	>57	?
CC(C)(C#N)N([O-])C=C[N+](=O)C(C)(C)C#N	>57	-10%
Cc1ccc(C(=O)CSc2nc(C)cc(SCc3nnc(-c4ccccc4)o3)n2)cc1	>57	-8%
Cc1sc2nc3ccc(N4CCCC4)nn3c(=O)c2c1C	>57	-14%
COC(=O)c1c(NC(=O)CN2CCC(C)CC2)c2c(C)cccc2n1C	>57	?
N#C[C@H]1CN[C@H](N)N[C@@H]1N	>57	-2%[8 µM]
Cc1occc1C(=O)NCc1cccc(CNC(=O)c2ccoc2C)c1	>57	-14%
Cn1c(C(=O)OCC(=O)NCCc2ccccc2)cc2sccc21	>57	-7%
Nc1ncnc2nc(Sc3ccc(Cl)cc3)[nH]c12	>57	-9%
COc1ccc(C(=O)N(CCCO)Cc2cc3c(C)ccc(C)c3[nH]c2=O)cc1OC	>57	-3%
COc1ccc(OC)c(CCNC(=O)C2CCN(c3nnc(-n4cccc4)s3)CC2)c1	>57	-13%
N#Cc1cccc(-c2nc(NCCN3CCOCC3)c3ccccc3n2)c1	>57	?
CC(C)c1cccc2nc3c(c([Si](C)(C)C)c12)Cn1c-3cccc1=O	>57	?
CCOC(=O)CSc1nc(N)c(C#N)c(-c2cccs2)c1C#N	/	-3%
CCCC[N+]1(C)[C@@H]2CC(OC(=O)[C@@H](CO)c3ccccc3)C[C@H]1[C@H]1O[C@H]12 (stereo not given in full)	>57	1%
CCOC(=O)C(Cc1cc(C(C)=O)ccc1OCC)C(=O)OCC	>57	-11%
O=c1c2ccccc2nc(-c2cccc(Cl)c2)n1O	>57	12%
COc1ccc2[nH]cc(CCNc3cc(-c4ccccc4CN(C)C)ncn3)c2c1	>57	?
CCNc1nc(C)cc(COC)c1C#N	/	0%
CCOC(=O)c1sc(NC(=O)CSc2nnc(Cc3ccccc3)o2)c(C#N)c1C	>57	-10%
COc1ccc(N2C(=O)CC(=O)NC2=O)cc1	>57	?
O=C(O)c1cc(-c2ccco2)[nH]n1	>57	4%
COc1ccc(NC(=O)C2CCCN(S(=O)(=O)c3cccnc3)C2)c(OC)c1 (stereo not given)	>57	-2%
CN1CCN(c2ncc3nc(-c4cc(F)cc(F)c4)c(=O)n(CCC#N)c3n2)CC1	>57	?
CCN1C(=O)CC(N2CCC(Nc3ccc(F)cc3)CC2)C1=O (stereo not given)	>57	8%
OC(CN1CCN(c2cccc(C(F)(F)F)c2)CC1)c1c[nH]c2ccccc12 (stereo not given)	>57	?
COc1ccccc1-n1c(CNc2c(C)cccc2C)nnc1SCC(=O)N1CCOCC1	>57	-13%
Cc1ccc2cc(CN(Cc3ccco3)C(=O)C3CCCCC3)c(=O)[nH]c2c1C	>57	?
Cc1nc(N2CCOCC2)c2nc(-c3ccccc3)n(C(C)CN(C)C)c2n1 (stereo not given)	/	2%
CC(=O)c1cc2c(cc1N)OCO2	>57	?
O=C(CN1C(=O)NC2(CCCCC2)C1=O)Nc1ccccc1Cl	>57	?
Cc1cc(N2C3CCC2CC(O)(c2ccc(F)cc2)C3)nc(-c2ccccc2)n1 (stereo not given)	>57	?
N=c1n(CCN2CCOCC2)c2ccccc2n1Cc1ccccc1Br	>57	?
Cc1ccc2nc(-c3cccc(NC(=O)c4ccco4)c3)[nH]c2c1	>57	-9%
CCOC(=O)C1C2C=CC3(CN(CCc4ccccc4)C(=O)C13)O2 (stereo not given)	>57	17%
O=C1c2ccccc2C(=O)N1CCCSc1nc2ccccc2o1	>57	-10%
Cc1cccc(OCCCN2CCCCCC2)c1	>57	-17%
COCCCNC(=O)CN(c1cc(OC)ccc1OC)S(=O)(=O)c1ccccc1	>57	-8%
COc1cccc2c(=O)n(CC(=O)NC3CCCC3)ccc12	>57	4%
CN1CCN(C(=O)c2ccc3c(c2)N(Cc2cccc(Cl)c2)C(=O)c2ccccc2S3=O)CC1 (stereo not given)	>57	?
O=C(NCC1CCCO1)c1cc(-c2ccco2)nc2ccccc12 (stereo not given)	>57	-11%
COc1cc(C2C(C(=O)c3ccco3)=C(O)C(=O)N2CCc2ccccc2)ccc1O (stereo not given)	>57	6%
CCCCOC(=O)CNc1nnc(SCC(=O)OCC)[nH]c1=O	>57	3%
O=C(c1cc2c(ccc3ccccc32)oc1=O)N1CCN(CCO)CC1	>57	-1%
COc1ccccc1OCC(=O)OCC(=O)Nc1ncc(Cl)cc1Cl	>57	1%
Cc1[nH]nc2c1C1(CCC3(CC1)OCCO3)C(C#N)=C(N)O2	>57	-1%
CCn1c(CN2CCCCCC2=O)nnc1SCc1cnc(-c2ccccc2)s1	>57	16%
COC(=O)c1ccccc1-n1c(C)nc2ccccc2c1=O	>57	4%
COCCSc1ccccc1C(=O)N1CCN(Cc2ccc3c(c2)OCO3)CC1	>57	11%
CCN1c2ccccc2-c2nc3ccccc3n2C1c1ccccn1 (stereo not given)	>57	?
C=CC(=O)OCCCCCCOC(=O)C=C	/	27%
CC(C)(C)C(=O)NC1CCN(C(=O)N2CCCC2)CC1	>57	?
CCCCCn1c(=O)[nH]c2c(c1=O)CCC2	>57	-17%
Continued:
SMILES	Prx2 Sm inh	Anthrax LT inh
CCOCCn1c(-c2ccc(OC)cc2)nc2ccccc21	>57	7%
O=C(CSc1cccc2cccnc12)NCc1ccco1	>57	-9%
COc1ccccc1C1C2=C(N=C3SCC(=O)N31)c1ccccc1CC2 (stereo not given)	>57	/
O=C1CC(c2ccsc2)c2cc3c(cc2N1)OCCO3 (stereo not given)	>57	35%
CN=CC1=C(O)CC(C)(C)CC1=O	>57	-1%
CCc1cc2cc(C)ccc2nc1SCC(=O)N1CCN(C(=O)c2ccco2)CC1	>57	-2%
COCCNc1ncnc2ccc(-c3cccnc3)cc12	>57	?
CCC1CCCCN1C(=O)Cn1c(=O)n(CCC(=O)NCc2ccco2)c(=O)c2sccc21 (stereo not given)	>57	2%
Cc1ccc2cc(C#N)c(SCC(=O)NCC3CCCO3)nc2c1 (stereo not given)	>57	-7%
Cc1cnc(C(=O)OCC(=O)Nc2cc(Cl)cc(Cl)c2)cn1	>57	-5%
CCN(CC)CCCNC(=O)c1nn(-c2ccc(OC)cc2OC)c(=O)c2ccccc12	>57	-3%
CC(C)(C)n1ncc2c(=O)n(CC(=O)NCCc3ccccc3)cnc21	>57	-4%

Of the compounds above, 5 have fluorine:
SMILES	Prx2 Sm inh	Anthrax LT inh
CCC(=O)c1ccc(N2CCN(C(=O)Cc3ccccc3)CC2)c(F)c1	>57	-16%
CN1CCN(c2ncc3nc(-c4cc(F)cc(F)c4)c(=O)n(CCC#N)c3n2)CC1	>57	?
CCN1C(=O)CC(N2CCC(Nc3ccc(F)cc3)CC2)C1=O (stereo not given)	>57	8%
OC(CN1CCN(c2cccc(C(F)(F)F)c2)CC1)c1c[nH]c2ccccc12 (stereo not given)	>57	?
Cc1cc(N2C3CCC2CC(O)(c2ccc(F)cc2)C3)nc(-c2ccccc2)n1 (stereo not given)	>57	?

(cont.)
SMILES	Prx2 Sm inh	Anthrax LT inh
COc1ccc(N2C(=O)CSC23CCCCC3)cc1	>57	-9%
Cc1cc(NC(=O)CSc2n[nH]c(CC(C)C)n2)no1	>57	6%
CC(=O)c1sc2nc(-c3cccs3)cc(C(F)(F)F)c2c1N	>57	?
O=C1c2ccccc2C(O)N1Cc1ccco1 (stereo not given)	>57	-4%
O=C(CSc1nnnn1-c1ccc(Cl)cc1)N1CCc2ccccc2C1	>57	-16%
O=C(O)c1ccc(S(=O)(=O)c2ccc3c(c2)C(=O)N(Cc2ccco2)C3=O)cc1	>57	16%
CCN1CCN(S(=O)(=O)c2cc(OCC(=O)NC3CCCCC3)c(C)cc2Cl)CC1	>57	-1%
CC(C)NC[C@@H](O)COc1cccc2[nH]ccc12	>57&>57&>57&>57	?
CCc1cccc(C)c1NC(=O)CSc1nnc(-c2ccco2)n1N	>57	20%
C[C@H](O)[C@@H]1C(=O)N2C(C(=O)O)=C(SCCN=CN)C[C@@H]12	>57	-6%[3.58 µM]
O=C(CSc1nccc(=O)[nH]1)Nc1ccc(F)c(Cl)c1	>57	9%
Cc1cccc(NC(=O)C2CCN(S(=O)(=O)c3c(C)nn(C)c3C)CC2)n1	>57	0%
COC(=O)c1ccccc1N(C)S(C)(=O)=O	>57	3%
CC1(C)C(=O)NC2=C1C(=O)C(=O)c1ccccc12	>57	?
CS(=O)(=O)N(CC(=O)N1CCN(c2cccc(Cl)c2)CC1)c1cccc(F)c1	>57	-14%
Oc1ccccc1-c1cc(C(F)(F)F)[nH]n1	>57	?
CC(C)Cc1nc2oc3c(N4CCN(CCO)CC4)ncnc3c2c2c1CCCC2	>57	14%
COc1ccc(NC(=O)CN(c2cc(C)cc(C)c2)S(=O)(=O)c2c(C)noc2C)cc1	>57	-17%
CCOC(=O)c1c(C2CC2)csc1NC(C)=O	>57	?
CCS(=O)(=O)N1CCC(C(=O)NC2CCCCC2)CC1	>57	16%
C=CCn1cnc2c(c1=O)c1nc3ccccc3nc1n2/N=C/c1cc(OC)c(OC)c(OC)c1	>57	/
COc1ncc2nc(-c3cc(F)cc(F)c3)c(=O)n(-c3ccccc3)c2n1	>57	?
C=CCc1cccc(CNc2nc3ccccc3n2CC)c1O	>57	?
Cc1ccc(CN2CC(C(=O)Nc3ccc(S(=O)(=O)Nc4cc(C)nc(C)n4)cc3)CC2=O)cc1 (stereo not given)	>57	6%
Cc1cc(Cl)c(S(=O)(=O)NCCC(=O)O)cc1OCC(N)=O	>57	-6%
CCCCNC(=O)c1ccccc1NS(=O)(=O)c1ccc2c(c1)OCCO2	>57	10%
O=C1NC2(CCCC2)N=C1c1ccc(Cl)cc1	>57	4%
O=c1oc2ccccc2cc1-c1nc2ccccc2o1	>57	-8%
Cc1ccc2c(c1)nnn2C1CCN(C(=O)c2cccs2)CC1	>57	0%
COC(=O)c1ccc(NC(=O)Cn2nc(SC)n(N)c2=S)cc1	>57	-5%
CCOC(=O)COc1ccc(C(=O)NC2CCCCC2)cc1	>57	-11%
COc1cc2c(C(=O)NCc3ccc(C)o3)cn(CC(C)C)c(=O)c2cc1OC	>57	11%
CCCc1cc(=O)[nH]c(SCC(=O)NC(=O)OCC)n1	>57	-3%
COc1ccc(C(=O)N2CCC3(CC2)CCN(c2ccccn2)CC3)cc1	>57	10%
CC1=CC(c2ccccc2)n2nc(N3C(=O)c4ccccc4C3=O)nc2N1 (stereo not given)	>57	2%
CN(C)c1ccc(-c2ccc3ncnc(N4CCNCC4)c3c2)cc1	>57	-4%
O=C(Nc1ccccc1C(=O)Nc1ccccc1C(=O)NCc1ccco1)c1ccco1	>57	?
Cc1cc(NC(=O)c2cc(-c3cccnc3)nc3c(C)c(C)ccc23)no1	/	-9%

Entries listed so far containing a tert-butyl group, in the order listed:
SMILES	Prx2 Sm inh	Anthrax LT inh
CC(C)(C)C(=O)NC1CCN(C(=O)N2CCCC2)CC1	>57	?
CC(C)(C)n1ncc2c(=O)n(CC(=O)NCCc3ccccc3)cnc21	>57	-4%

Assay outcomes (PubChem BioAssay)
